ClpP mod – qHTS Assay for Activators of ClpP | purified B. subtilis ClpP, FRET peptide cleavage, 20 min | Potency, µM (highest dose often 57.5 µM), for the others: top-dose activity change, negative = active | hit rate 1.9% among 340,000; active = well fitted falling curve with a large enough effect; inconclusive = small, poorly fitted or top-dose-only effect; inactive = no such curve, though single readings can be large or run the other way; note: potency is the fitted concentration of half-maximal effect; the source files actives as falling curves though it sought activators and does not explain the sign; nearly all actives have a fitted effect of over 65% in size; many hits overshoot -100%
Target sequence (P80244 whole entry, looked up): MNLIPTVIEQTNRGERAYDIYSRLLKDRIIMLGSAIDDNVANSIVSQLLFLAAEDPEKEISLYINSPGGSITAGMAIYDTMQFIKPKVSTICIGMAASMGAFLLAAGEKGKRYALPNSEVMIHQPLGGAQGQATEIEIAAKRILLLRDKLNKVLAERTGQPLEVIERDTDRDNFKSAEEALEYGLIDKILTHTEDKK
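Buffer: 100 mM Tris/HCl pH8, 100 mM KCl, 0.05% low protease BSA, 2.5% glycerol, 0.01% Tween-20. ClpP 10 microg/mL final; 20 min RT; delta FRET normalized to ADEP and DMSO controls.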
TRPML1 blocker – human mucolipin-1 channel inhibition; Q9GZU1; TRPML1-inducible cells, Ca2+ dye fluorescence, FDSS; active compounds read low; inhibition of EC80 agonist-evoked calcium signal; activity change, negative = inhibition, % (test concentration not listed); hit rate 0.02% among 390,000; AID 624415; in the data active means activity change below about -50%; inconclusive means about -30% to -50%; inactive means above about -30%;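 note: stimulus is agonist 54-4 at its EC80 concentration; % is set by controls: 0 for no effect and ±100 for the full control effect; compound concentration not given in the record; the text of the record puts the active cut at -80%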
Target sequence (Q9GZU1 whole entry, looked up): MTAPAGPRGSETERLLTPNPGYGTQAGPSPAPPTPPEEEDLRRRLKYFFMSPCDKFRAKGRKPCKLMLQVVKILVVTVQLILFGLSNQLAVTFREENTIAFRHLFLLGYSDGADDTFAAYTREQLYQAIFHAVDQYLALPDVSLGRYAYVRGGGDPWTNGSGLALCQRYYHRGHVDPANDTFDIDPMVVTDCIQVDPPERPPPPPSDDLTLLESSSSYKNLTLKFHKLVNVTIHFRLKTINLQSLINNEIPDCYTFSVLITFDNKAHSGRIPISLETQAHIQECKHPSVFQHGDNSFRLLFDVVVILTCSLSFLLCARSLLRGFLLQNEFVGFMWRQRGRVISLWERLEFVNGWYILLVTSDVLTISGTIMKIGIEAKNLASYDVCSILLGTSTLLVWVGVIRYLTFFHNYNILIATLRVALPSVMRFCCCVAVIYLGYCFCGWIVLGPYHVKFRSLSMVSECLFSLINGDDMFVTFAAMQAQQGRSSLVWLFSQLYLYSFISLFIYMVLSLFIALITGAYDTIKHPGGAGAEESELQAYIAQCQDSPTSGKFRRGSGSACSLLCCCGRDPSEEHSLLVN
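TRPML1-DL cells, Tet-induced overnight (~16 h, 37 °C) at 1,500 cells/well, were loaded with Ca8 no-wash dye plus quencher for 45-90 min at room temperature. Compounds were pinned during FDSS kinetic reading; agonist 54-4 at EC80 (4 uM final) then added.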
Numbers without * were called inactive.

Cc1ccc(-c2nc3scc(CCNS(=O)(=O)c4ccc(F)c(C)c4)n3n2)cc1 was read as ClpP mod 2.0% and TRPML1 blocker inconclusive.
`CCc1ccc(-n2c(SCc3cccc(F)c3)nc3[nH]ncc3c2=O)cc1` gave ClpP mod -2.8% and TRPML1 blocker 8.
`Cc1ccc(-c2nc3cccnc3s2)cc1NC(=O)C(C)C` gave ClpP mod inconclusive and TRPML1 blocker -21.
`Cc1ccc(-c2nc3cc(NC(=O)Cc4ccc(Cl)cc4)ccc3o2)cc1` gave ClpP mod -9.7% and TRPML1 blocker -1.
CCN(CC)CCNC(=O)C1CCN(c2cc(C)nc3c(-c4ccc(Cl)cc4)c(C)nn23)CC1 was read as ClpP mod -27% and TRPML1 blocker 1.
For COc1cccc(CNC(=O)c2ccc3c(c2)c(C)c(C)n3Cc2ccccc2)c1 the results were ClpP mod inconclusive and TRPML1 blocker 10.
For CCOc1ccc(CCNC(=O)c2c(C)oc3ncn(CC(C)C)c(=O)c23)cc1OCC the results were ClpP mod 2.1% and TRPML1 blocker 6.
For COc1cccc2c1cc1c(=O)n(CC(=O)N3CCN(c4ccc(F)cc4)CC3)nc(C)n12 the results were ClpP mod 20µM* and TRPML1 blocker -2.
O=C(NCc1cccs1)c1nn(-c2ccccc2F)nc1CO was read as ClpP mod 0.6% and TRPML1 blocker -5.
Screening COC(=O)c1ccc(NC(=O)CSc2nc3ccc(OC)cc3[nH]2)cc1 returned ClpP mod 1.9% and TRPML1 blocker 27.
`COc1ccccc1CNc1ccc(-c2nc(-c3ccccn3)no2)cc1[N+](=O)[O-]` gave ClpP mod -2.0% and TRPML1 blocker -20.
`CCc1ccc(CNC(=O)Cn2c(-c3cccs3)cc3cc(F)ccc32)cc1` gave ClpP mod 4.6% and TRPML1 blocker -20.
CCc1ccc(S(=O)(=O)Nc2cc3c(C(=O)OCc4ccccc4)c(C)oc3c3ccccc23)cc1 was read as ClpP mod -3.8% and TRPML1 blocker 28.
Screening COc1ccc(Cn2c(CO)cnc2SCC(=O)Nc2ccc3c(c2)OCCO3)cc1 returned ClpP mod -2.2% and TRPML1 blocker 16.
Cc1cc2oc(C(=O)Nc3cccc(-c4nc5ccccc5o4)c3)c(C)c2cc1C was read as ClpP mod -0.9% and TRPML1 blocker 1.
For Cc1oc2ncn(CC(C)C)c(=O)c2c1C(=O)N1CCN(c2ccc(F)cc2)CC1 the results were ClpP mod 0.7% and TRPML1 blocker 21.
For O=c1c2cnn(-c3ccc(F)cc3)c2ncn1Cc1ccccc1Cl the results were ClpP mod -0.8% and TRPML1 blocker -14.
Cc1ccc(-n2nc3c(=O)n(CCCC(=O)NC(C)c4ccccc4)nc(C)c3c2C)cc1 (stereo not drawn) was read as ClpP mod -2.1% and TRPML1 blocker -25.
`CCOC(=O)c1sc(NC(=O)C(C)Oc2ccc(OC)cc2)c(C(=O)OCC)c1C` (stereo not drawn) gave ClpP mod -3.5% and TRPML1 blocker -1.
CCCSCCCNC(=O)C1CCN(C(=O)c2cc3sccc3n2C)CC1 was read as ClpP mod -2.2% and TRPML1 blocker 24.
`Cc1cccc(S(=O)(=O)c2cn(C)c3cc(N4CCC(C)CC4)c(F)cc3c2=O)c1` gave ClpP mod -7.1% and TRPML1 blocker 9.
COc1ccc(NC(=O)c2cnc(N3CCOCC3)c3ccccc23)cc1OC was read as ClpP mod 0.0% and TRPML1 blocker -4.
CCc1ccc(-c2nc(SCC(=O)NCC3CCCO3)c(-c3ccc(C)cc3)[nH]2)cc1 (stereo not drawn) was read as ClpP mod 32µM* and TRPML1 blocker -9.
Cc1ccc(-n2ncc3c(Nc4ccc5c(c4)OCCO5)ncnc32)cc1C was read as ClpP mod inconclusive and TRPML1 blocker -22.

Next part; it opens with the 5 that closed the last part.
CCCSCCCNC(=O)C1CCN(C(=O)c2cc3sccc3n2C)CC1 was read as ClpP mod -2.2% and TRPML1 blocker 24.
`Cc1cccc(S(=O)(=O)c2cn(C)c3cc(N4CCC(C)CC4)c(F)cc3c2=O)c1` gave ClpP mod -7.1% and TRPML1 blocker 9.
COc1ccc(NC(=O)c2cnc(N3CCOCC3)c3ccccc23)cc1OC was read as ClpP mod 0.0% and TRPML1 blocker -4.
CCc1ccc(-c2nc(SCC(=O)NCC3CCCO3)c(-c3ccc(C)cc3)[nH]2)cc1 (stereo not drawn) was read as ClpP mod 32µM* and TRPML1 blocker -9.
Cc1ccc(-n2ncc3c(Nc4ccc5c(c4)OCCO5)ncnc32)cc1C was read as ClpP mod inconclusive and TRPML1 blocker -22.
`Cc1c(C(=O)NC(C)c2ccccc2)sc2nc3n(c(=O)c12)CCCC3` (stereo not drawn) gave ClpP mod -4.8% and TRPML1 blocker -8.
For CC(=O)c1cc(-c2ccc(F)cc2)n(CCC(=O)NCc2ccc(C)cc2)c1C the results were ClpP mod -4.5% and TRPML1 blocker 11.
`CC1=C(C(=O)Nc2ccc(C)cc2C)C(c2cccs2)n2nc(SCc3cccc(C)c3)nc2N1` (stereo not drawn) gave ClpP mod -0.5% and TRPML1 blocker -9.
For CCOc1ccc(CCNC(=O)Cn2nnc(-c3ccc(OC)c(OC)c3)n2)cc1OCC the results were ClpP mod -5.5% and TRPML1 blocker -10.
`O=C(NCCOCCO)C(=O)Nc1c2c(nn1-c1ccc(F)cc1)CSC2` gave ClpP mod -2.2% and TRPML1 blocker 1.
`Cc1ccc(C)c(Nc2ncnc3onc(C)c23)c1` gave ClpP mod -0.5% and TRPML1 blocker 9.
`COc1ccc(C2NC(=O)NC(C)=C2C(=O)Nc2ccccc2)cc1OC` (stereo not drawn) gave ClpP mod -0.6% and TRPML1 blocker -16.
COC(=O)c1ccccc1NS(=O)(=O)c1ccc2c(c1)CCCN2C(C)=O was read as ClpP mod -8.4% and TRPML1 blocker 5.
Screening CCNC(=O)C1(C)CCN(C(=O)c2ccc(N(C)C)cc2)C1 (stereo not drawn) returned ClpP mod 0.9% and TRPML1 blocker -6.
Cc1ccc(NC(=O)NCc2c(-n3cccc3)sc3c2CCCC3)c(Cl)c1 was read as ClpP mod -1.2% and TRPML1 blocker -25.
For COc1ccc(C2C(C(=O)Nc3ccccc3)=C(C)Nc3nc(-c4ccccc4)nn32)c(OC)c1 (stereo not drawn) the results were ClpP mod -20% and TRPML1 blocker 3.
`O=C(Cc1ccccc1)NC1CC(=O)N(c2ccccc2)C1` (stereo not drawn) gave ClpP mod 0.4% and TRPML1 blocker 10.
Screening COC(=O)c1ccc(C(=O)OC)c(NC(=O)c2c(-c3ccccc3)c(-c3ccccc3)nn(C)c2=O)c1 returned ClpP mod -6.8% and TRPML1 blocker -7.
`COc1ccc(-n2nc(C(=O)Nc3ccc(Cl)cn3)c3c4ccccc4n(C)c3c2=O)cc1Cl` gave ClpP mod -11% and TRPML1 blocker -7.
`CCN(CC)S(=O)(=O)c1ccc2c(c1)c(=O)c(C(=O)N1CCN(c3cccc(C)c3)C(C)C1)cn2C` (stereo not drawn) gave ClpP mod -1.3% and TRPML1 blocker -8.
For Cc1cn2c(=O)c(S(=O)(=O)NCCc3ccc(Cl)cc3)c(C)nc2s1 the results were ClpP mod inconclusive and TRPML1 blocker 2.
Screening COC(=O)C1=C(c2ccccc2)c2ccccc2S(=O)(=O)N1CC(=O)Nc1ccc(F)c(F)c1 returned ClpP mod -4.4% and TRPML1 blocker -29.
Cc1ccccc1Cn1nnc2sc3c(c2c1=O)CCCC3 was read as ClpP mod -2.0% and TRPML1 blocker -23.
CCc1ccccc1NC(=O)c1cc(S(=O)(=O)NCCc2ccc(OC)c(OC)c2)ccc1F was read as ClpP mod -0.1% and TRPML1 blocker 4.
`Cc1cc(C)cc(NC(=O)C2CCCN(c3nnc(C)c4c(C)n(-c5ccccc5)nc34)C2)c1` (stereo not drawn) gave ClpP mod 3.8% and TRPML1 blocker 1.
CC(C)OC(=O)c1ccc(NC(=O)CSc2nc(-c3cccs3)cc(C(F)(F)F)n2)cc1 was read as ClpP mod inconclusive and TRPML1 blocker -17.
`CC(C)(C)OC(=O)N1CCC(c2c(C(=O)N3CCN(c4ccccc4F)CC3)cnn2C(C)(C)C)CC1` gave ClpP mod -3.4% and TRPML1 blocker -15.
For CCC(C(=O)OCc1cc(=O)n2nc(CCOC)sc2n1)c1ccccc1 (stereo not drawn) the results were ClpP mod -3.2% and TRPML1 blocker -16.
Screening CCn1cc(S(=O)(=O)c2cccc(Cl)c2)c(=O)c2cc(F)c(N3CCN(c4ccccc4)CC3)cc21 returned ClpP mod -5.6% and TRPML1 blocker -4.
Screening CC(Oc1ccc(F)cc1)C(=O)N1CCC(c2nc3ccccc3s2)CC1 (stereo not drawn) returned ClpP mod -2.4% and TRPML1 blocker 30.
Screening Cc1cc(F)ccc1NC(=O)CCS(=O)(=O)c1ccc2c(c1)NC(=O)CO2 returned ClpP mod 1.5% and TRPML1 blocker 2.
For CCOC(=O)c1c(C)[nH]c(C)c1S(=O)(=O)N1CCCC(C(=O)NCc2cccc(OC)c2)C1 (stereo not drawn) the results were ClpP mod 1.5% and TRPML1 blocker 13.
COc1cc2c(=O)n(Cc3ccccc3Cl)c(=O)n(CC(=O)Nc3ccc(C)c(C)c3)c2cc1OC was read as ClpP mod -6.9% and TRPML1 blocker -11.
Cc1ccc(NC(=O)Cn2c(=O)n(CCCCC(=O)NCCc3ccc(Cl)cc3)c(=O)c3ccccc32)cc1 was read as ClpP mod -2.3% and TRPML1 blocker 13.
Screening O=C(NCCc1ccccc1)c1cc(Sc2ccc(F)cc2F)nc2ccccc12 returned ClpP mod 32% and TRPML1 blocker -4.
CCCCN(CC)C(=O)CCNS(=O)(=O)c1ccc2c(c1)c(=O)n(C)c(=O)n2C was read as ClpP mod -23% and TRPML1 blocker 1.
For Cc1oc2ncn(C)c(=O)c2c1C(=O)NCCCN1CCCCC1C (stereo not drawn) the results were ClpP mod -4.1% and TRPML1 blocker -7.
For Cc1cc(C)cc(-n2c(SCC(=O)N3CCCCC3)nc3c([nH]c4ccccc43)c2=O)c1 the results were ClpP mod -1.7% and TRPML1 blocker 1.
O=C(c1ccc2c(Cl)c3c(nc2c1)CCCC3)N1CCN(c2cccc(Cl)c2)CC1 was read as ClpP mod 0.1% and TRPML1 blocker -9.
Screening COc1c(C)cc(S(=O)(=O)NCCc2c(C)[nH]c3ccccc23)c(C)c1C returned ClpP mod -1.0% and TRPML1 blocker -16.
For Cc1ccc(S(=O)(=O)C(CNS(=O)(=O)c2ccc(F)c(C)c2)c2cccs2)cc1 (stereo not drawn) the results were ClpP mod -1.1% and TRPML1 blocker -10.
For COc1cccc(C(c2sc3nc(-c4ccco4)nn3c2O)N2CCC(O)CC2)c1 (stereo not drawn) the results were ClpP mod -0.6% and TRPML1 blocker -9.
CCOc1ccc(-n2ccnc2SCC(=O)Nc2cccc3ccccc23)cc1 was read as ClpP mod -0.5% and TRPML1 blocker 35.
Screening Cc1ccc(NC(=O)NCCOCCn2c(=O)oc3ccccc32)cc1C returned ClpP mod 0.7% and TRPML1 blocker 47.
For COc1cccc(CNC(=O)CCCN2C(=O)CSc3c2c(C)nn3-c2ccccc2)c1 the results were ClpP mod 0.1% and TRPML1 blocker -1.
Screening COc1ccc(CNC(=O)C(=O)NCC(c2ccco2)S(=O)(=O)c2ccc(Cl)cc2)cc1 (stereo not drawn) returned ClpP mod 2.1% and TRPML1 blocker -15.
Screening COCCNc1ccc(-c2nc(-c3ccncc3)no2)cc1[N+](=O)[O-] returned ClpP mod -0.4% and TRPML1 blocker 5.
For COc1ccccc1CNC(=O)c1cc2cc(C)ccc2n1C the results were ClpP mod inconclusive and TRPML1 blocker -7.
Screening Cc1ccc(-c2nnc3ccccc3c2C(=O)Nc2ccc(C)c(F)c2)cc1 returned ClpP mod 0.7% and TRPML1 blocker 6.
Cc1ccc(-c2c(C(=O)Nc3ccccc3F)oc(=O)c3ccccc23)cc1 was read as ClpP mod 1.9% and TRPML1 blocker -12.
Screening CCOc1ccc(CNS(=O)(=O)c2ccc(-c3coc(C)n3)cc2)cc1OC returned ClpP mod 1.4% and TRPML1 blocker 12.
`COC(=O)c1cc2sccc2n1Cc1c(C)cc(C)cc1C` gave ClpP mod -1.7% and TRPML1 blocker 2.
Cc1nc(-c2ccc(F)cc2)sc1CCNC(=O)C(=O)Nc1ccc2c(c1)OCO2 was read as ClpP mod 0.9% and TRPML1 blocker -12.
Cn1c(=O)c2cc(NC(=O)NCc3ccc(F)cc3)ccc2n1Cc1cccc(C(F)(F)F)c1 was read as ClpP mod 4.5% and TRPML1 blocker -6.
Screening O=C(OCc1cc(=O)n2nc(-c3cccs3)sc2n1)c1ccc(Cl)cc1 returned ClpP mod -12% and TRPML1 blocker -29.
Screening COc1ccccc1NC(=O)c1sc2ncn(Cc3ccccc3Cl)c(=O)c2c1C returned ClpP mod -1.4% and TRPML1 blocker -4.
For CCOc1ccc(N2CC(NC(=O)c3ccc(Cl)cc3)CC2=O)cc1 (stereo not drawn) the results were ClpP mod -0.3% and TRPML1 blocker -1.
For Cc1ccc(-c2c(C(=O)N3CCN(c4cccc(C)c4C)CC3)oc(=O)c3ccccc23)cc1 the results were ClpP mod -0.1% and TRPML1 blocker 10.
CCN(Cc1ccccc1)Cc1c(O)ccc2c(=O)c(-c3ccccc3Cl)coc12 was read as ClpP mod inconclusive and TRPML1 blocker -3.
For COc1ccccc1CNC(=O)Cn1cc2c(n1)-c1c(oc(C(=O)N3CCOCC3)c1C)CC2 the results were ClpP mod -5.9% and TRPML1 blocker -8.

Source: PubChem BioAssay (National Center for Advancing Translational Sciences (NCATS))

The list is partial; count on the stated rates, not on these rows.
